UCH37 DUB inh = human UCH37 deubiquitinating enzyme inhibition; Q9Y5K5; purified proteasome/UCH37, Ub-AMC cleavage fluorescence; inhibition, % (no concentration beside the values); 330,000 tested, 0.33% active; AID 588478;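 active = mean of two replicates above 20%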;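 note: 0% = compound-free wells with enzyme and 100% = wells lacking proteasome; stock transfer was 100 nL into about 20 µL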
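Material: Human UCH37 enzyme supplied as purified proteasome complex | Schedule: 30 min preincubation with enzyme, 25 min cleavage at room temperature | Detection: AMC fluorescence 355/460 nm | Measure: % inhibition of Ub-AMC cleavage fluorescence | Controls: Wells without proteasome as full block, compound-free enzyme plus substrate as uninhibited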
HNF4A DNA FP = change in binding of human HNF4 alpha to DNA; P41235; HNF4a-FITC DNA binding, fluorescence polarization, 1 h; activity change, % at 10 µM; 360,000 tested, 0.3% active; AID 1224865; in the data active = activity change above about 30%, passing the limit was not always enough;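 note: controls were the assay level and a saturating level of protein; the project sought stronger binding though the title names inhibitors; some compounds called inactive have numbers as strong as hits; positive values seem to mean higher polarization but the record does not say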
Target sequence (P41235 whole entry, looked up): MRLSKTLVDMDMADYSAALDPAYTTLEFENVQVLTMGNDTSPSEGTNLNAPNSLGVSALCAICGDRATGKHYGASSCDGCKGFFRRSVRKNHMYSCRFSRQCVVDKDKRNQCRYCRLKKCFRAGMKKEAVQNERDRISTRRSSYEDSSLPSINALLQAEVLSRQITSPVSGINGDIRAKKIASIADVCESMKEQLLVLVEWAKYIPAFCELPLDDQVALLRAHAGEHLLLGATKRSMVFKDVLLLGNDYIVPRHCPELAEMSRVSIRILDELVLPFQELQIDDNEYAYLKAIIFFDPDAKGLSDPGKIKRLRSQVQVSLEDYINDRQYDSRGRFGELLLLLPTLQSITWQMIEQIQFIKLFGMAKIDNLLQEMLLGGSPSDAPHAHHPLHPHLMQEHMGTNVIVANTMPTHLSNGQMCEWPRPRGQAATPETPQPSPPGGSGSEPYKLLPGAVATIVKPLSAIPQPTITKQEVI
Vif A3G = inhibitors of Vif binding to APOBEC3G peptide, primary screen, biochemical, TR-FRET, GST-Vif 1-94, biotin-A3G peptide, dose response retest (AID 1117319). TR-FRET GST-Vif / biotin-A3G peptide binding; higher % means a stronger effect; test concentration not given here; strong numbers were not always called active. one-dose inhibition, %; IC50 in µM for titrated hits. 260,000 tested, 0.57% active;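 active = above the screen mean plus three standard deviations and confirmed in dose response; inconclusive = results disagree or hit not tested in dose response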;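 note: Vif residues 1-94 fused to GST binding biotinylated APOBEC3G peptide 110-148; 0% = full assay without inhibitor and 100% = GST in place of GST-Vif; retest series ran down from 100 µM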
Bfl-1 A1 inh = inhibitors of the anti-apoptotic protein A1, read as caspase activation; MEF A1-2A-BIM cells, Caspase-Glo 3/7 luminescence, 3 h; percent of clofoctol response, vehicle zero; caspase activation, % (no concentration beside the values); 330,000 tested, 0.066% active;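 active = over half of replicate activation scores above 10%, or exactly half above 10 with the replicate mean above 10; inconclusive = replicate mean below 10 yet half the replicates above 10; inactive = over half of replicates below 10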;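 note: wells of about 30 µL received 50 nL stock; many hits fall short of the cut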
E coli growth = E. coli growth inhibition. Escherichia coli growth, OD600, 23 h; hits give low values. AID 1053175. OD600 absorbance (test concentration not listed). 330,000 tested, 0.21% active;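 active = OD600 absorbance below the run mean of sample wells minus 3.6 SD, in any replicate, cut at about 0.56 in these data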;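 note: stock transfer was 300 nL into about 60 µL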
B2AR ag = human beta-2 adrenergic receptor agonism by FAP. Am2.2-beta2AR cells, FAP receptor internalization, flow cytometry; reference of the scale not given here. response, % (no concentration beside the values). 340,000 tested, 0.43% active;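 active = response above a set limit, near 3 SD of response in nonfluorescent compounds, cut at about 42% in these data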;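 note: stock transfer was 100 nL into about 11 µL; a reference agonist was the positive control; negative values mostly stem from fluorescent compounds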
Target sequence (P07550 whole entry, looked up): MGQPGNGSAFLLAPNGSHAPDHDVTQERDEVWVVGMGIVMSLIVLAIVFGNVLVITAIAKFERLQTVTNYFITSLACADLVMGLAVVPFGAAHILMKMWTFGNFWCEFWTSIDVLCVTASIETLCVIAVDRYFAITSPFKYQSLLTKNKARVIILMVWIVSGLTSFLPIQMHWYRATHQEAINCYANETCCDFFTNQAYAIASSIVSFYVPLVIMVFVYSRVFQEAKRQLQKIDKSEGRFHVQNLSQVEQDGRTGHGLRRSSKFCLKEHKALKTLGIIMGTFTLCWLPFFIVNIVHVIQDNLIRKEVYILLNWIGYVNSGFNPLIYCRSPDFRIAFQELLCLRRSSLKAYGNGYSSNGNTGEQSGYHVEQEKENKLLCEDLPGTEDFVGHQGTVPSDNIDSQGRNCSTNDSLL
LANA-H2B inh = blocks KSHV LANA binding to histone H2A/H2B; Q9QR71; inhibition, % (test concentration not listed); cell-free LANA-H2A/H2B peptide, fluorescence polarization; 320,000 tested, 0.6% active; in the data active = inhibition mostly above about 10%, no sharp cut-off; inactive = mostly below about 6.7%;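 note: stock transfer was 7.5 nL into about 10 µL; 0% = median of vehicle wells and 100% = median of positive control wells; one replicate is shown; the record names a cut of 25% in any replicate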
* hit, by the source's call; ? = inconclusive; / = not tested or not shown.

SMILES | UCH37 DUB inh | HNF4A DNA FP | Vif A3G | Bfl-1 A1 inh | E coli growth | B2AR ag | LANA-H2B inh
O=C(Cc1ccc(F)cc1)N1CCC(CC2CC(c3cccc(Br)c3)=NO2)(C(=O)NCC2CCCCC2)CC1 (stereo unspecified) | 1.8 | 2.9 | / | 2.2 | 0.69 | 0 | 3.8
CN1CCN(C2=C(Cl)C(=O)N(CCc3ccccc3)C2=O)CC1 | 7.1 | -3.6 | -4% | 0.4 | 0.7 | -5 | -0.1
CC(C)C[C@@H](CO)N(Cc1ccccc1)S(=O)(=O)N(Cc1ccccc1)[C@@H](CO)CC(C)C | 0.2 | -0.1 | / | -0.8 | / | 13 | -8.0
COC(=O)Cc1ccc(NC(=O)c2ccc(C)c(C)c2)cc1 | 4.8 | -0.7 | 18% | -4.2 | 0.68 | -5 | 3.3
CCN1CCc2nc(NC(=O)CC(c3ccccc3)c3ccccc3)sc2C1 | 1.6 | 5.3 | -4% | 1.6 | 0.71 | 2 | -4.5
COc1cccc(C(=O)Nc2cccc(OC(C)=O)c2)c1 | 0.8 | -1.1 | 4% | -6.4 | 0.58 | 2 | -4.0
OCC1CCCN(C2CCN(Cc3nc(Cc4cccc(C(F)(F)F)c4)no3)CC2)C1 (stereo unspecified) | 3.1 | 3.0 | 8% | -0.4 | 0.69 | -1 | 2.0
O=C(COC(=O)c1n[nH]c2ccccc12)NC(=O)NC12CC3CC(CC(C3)C1)C2 | 1.0 | 1.3 | 6% | -0.1 | 0.73 | 3 | 1.8
Cc1nn(CC(=O)NCc2ccc(Cl)cc2)c(C)c1[N+](=O)[O-] | 0.9 | -1.6 | 5% | 0.9 | 0.69 | 0 | -0.6
Cc1cc(-n2c(SCC(=O)NCc3cccs3)nc3n[nH]c(C)c3c2=N)ccc1Cl | -2.6 | -3.9 | -39% | 0.0 | 0.73 | -1 | -0.2
Cc1ccc2c(c1)N(C(=O)CCC(=O)N1CCN(c3ccccn3)CC1)CC(C)O2 (stereo unspecified) | 3.9 | -1.8 | / | -0.2 | 0.79 | -9 | 0.1
CCOc1cc(N2CCOCC2)c(OCC)cc1NC(=O)COc1ccc2ccc(=O)oc2c1 | / | / | 0% | 0.3 | / | / | 2.0
COc1ccc(-n2cc(CNCCc3nc(C)cc(C)n3)c(-c3ccccc3Cl)n2)cc1 | 0.7 | 1.1 | 6% | 0.1 | 0.69 | 4 | -2.2
O=c1n(Cc2ccccc2)c2cc(Cl)cnc2n1Cc1ccccc1 | -34 | 0.8 | -6% | -0.8 | 0.71 | -3 | -2.6
Cc1ccc(N2CCN(C(=O)c3ccccc3NC(=O)c3ccccc3C(=O)O)CC2)cc1 | 3.8 | 2.1 | / | -0.3 | 0.7 | 2 | 4.8
CCN(C(=O)CN1C(=O)S/C(=C\c2ccc(F)cc2)C1=O)C1CCS(=O)(=O)C1 (stereo unspecified) | 5.4 | 2.7 | / | -1.4 | 0.67 | 24 | 4.3
COc1cccc(NC(=O)NC2CCN(CC(=O)Nc3ccccc3[N+](=O)[O-])CC2)c1 | 0.8 | 0.0 | / | 0.3 | 0.58 | 6 | -15
COc1cc(C(=O)NCCCCCCNC(=O)c2cc(OC)c(OC)c(OC)c2)cc(OC)c1OC | 0.4 | 3.0 | / | 0.0 | 0.67 | 0 | -2.6
Cc1ccc(N2CC(C)Cn3c2nc2c3c(=O)[nH]c(=O)n2C)cc1C (stereo unspecified) | 4.9 | 1.6 | -1% | -0.1 | 0.66 | 17 | 2.5
CSc1ccc(S(=O)(=O)NC2CC3CCC2C3)cc1 (stereo unspecified) | 2.0 | -0.8 | / | 1.1 | 0.67 | -11 | 0.1
CCc1cc2cc(C)c(C)cc2nc1SCC(=O)Nc1cc(C)on1 | 3.9 | -0.2 | -25% | 0.5 | 0.68 | 15 | 8.7
Cc1cc(C(=O)COC(=O)c2ccc3c(c2)NC(=O)CS3)c(C)n1CCc1ccc(Cl)cc1 | 5.6 | 1.2 | -5% | -0.7 | 0.7 | -7 | 0.6
COCCNc1nnc(SCC(=O)Nc2cc(-c3ccccc3)nn2-c2ccccc2)s1 | -0.5 | 5.5 | -9% | -0.1 | 0.64 | -14 | 1.6
Cc1cccc(NC(=O)C2CCN(C(=O)c3ccco3)CC2)c1C | 7.5 | 2.3 | 2% | 0.2 | 0.64 | -1 | 4.0
CS(=O)(=O)N(CC(=O)Nc1ccc(S(=O)(=O)N2CCCC2)cc1)c1ccccc1F | 5.8 | -1.4 | ? | -0.6 | 0.67 | 0 | -5.1
COc1ccc(Cl)cc1C(=O)NNC(=O)CSc1nnc2ccccn12 | 3.2 | -2.2 | -3% | -1.2 | 0.68 | -3 | -2.6
CCC(=O)N1CCCC(C(=O)c2ccc(-c3ccccc3)cc2)C1 (stereo unspecified) | 3.1 | 0.2 | / | -2.9 | 0.65 | 10 | -1.1
Cc1cc(C(=O)OCC(=O)Nc2ccc(S(=O)(=O)N3CCOCC3)cc2)c(C)o1 | 0.0 | -1.4 | 16% | 0.8 | 0.69 | 4 | 4.7
COc1ccc(CCC(=O)N2CCCSC2=Nc2ccc(C(C)=O)cc2)cc1 | 4.7 | -1.8 | 12% | -0.4 | 0.69 | -1 | 3.5
Oc1c(Cl)cc(Cl)cc1/C=C/c1ccc2cccc(O)c2n1 | 2.0 | 10 | 1% | -0.2 | 0.68 | -15 | -0.7
CCN(Cc1ccccc1)S(=O)(=O)c1ccc(C(=O)Nc2nnc(C3CC3)o2)cc1 | 7.1 | -4.2 | 74% | -0.3 | 0.72 | -4 | 1.7
COc1ccc(/C=C/c2nnc(NC(=O)C(C)C)s2)cc1 | -94 | -1.2 | -4% | -0.3 | 0.69 | -8 | -0.6
O=C(O)c1cc(S(=O)(=O)Nc2cc(Cl)ccc2Oc2ccccc2)ccc1O | -3.6 | -1.3 | / | / | 0.69 | -4 | /
N#Cc1ccc(NC(=O)CCc2nc3ccccc3s2)cc1 | 2.9 | 2.2 | 3% | -0.7 | 0.66 | -10 | 1.4
COc1cc(CNCc2ccc(SC)cc2)cc(OC)c1 | 2.5 | 2.8 | / | -0.8 | 0.67 | -7 | -3.4
Cc1ccccc1Oc1ccccc1N | 0.9 | 0.3 | 13% | 0.0 | 0.72 | 17 | -2.4
O=C1C=C(c2ccc3c(c2)oc2ccccc23)C[C@@H](c2ccc(Cl)cc2)C1 | 2.5 | 7.3 | / | 0.2 | / | -1 | 2.0
c1ccc(CCc2cn(C[C@H]3CC[C@@H]([C@@H]4CC[C@H](Cn5cc(CCc6ccccc6)nn5)O4)O3)nn2)cc1 | 1.7 | 3.1 | / | 0.4 | / | 5 | 8.4
CCN=C(Nc1cccc(F)c1)SC1CC(=O)N(c2ccc(OC)cc2)C1=O (stereo unspecified) | 0.8 | 0.9 | ? | 0.4 | 0.71 | 6 | 3.2
CC(C)NC(=O)NS(=O)(=O)c1cnccc1N1CCCCC1 | 3.1 | 2.9 | -6% | -0.2 | 0.8 | -2 | -4.1
Cc1ccc(-n2nnnc2SCC(=O)Nc2cccc(NC(=O)c3ccco3)c2)cc1C | 1.2 | 5.7 | -4% | 0.1 | 0.75 | -16 | -3.7
O=C1[C@@H]2CSCN2C(=O)CN1Cc1cccc(C(F)(F)F)c1 | -0.3 | -0.2 | / | 2.0 | 0.65 | -9 | 0.2
CC1CCN(CCNC(=O)C2CCCN(S(=O)(=O)c3cccc4nsnc34)C2)CC1 (stereo unspecified) | 5.9 | -1.3 | / | -0.3 | 0.62 | -2 | -6.2
Cc1cccc(OC(=O)c2cccnc2)c1 | 5.8 | 1.7 | / | -0.2 | 0.64 | -1 | 1.3
CS(=O)(=O)c1ccc(Cl)c(NC(=O)COC(=O)CCCN2C(=O)c3cccc4cccc(c34)C2=O)c1 | -60 | 0.0 | -5% | -0.3 | 0.7 | 4 | -2.2

Entries above that contain a furan ring, fused or not:
SMILES | UCH37 DUB inh | HNF4A DNA FP | Vif A3G | Bfl-1 A1 inh | E coli growth | B2AR ag | LANA-H2B inh
Cc1cccc(NC(=O)C2CCN(C(=O)c3ccco3)CC2)c1C | 7.5 | 2.3 | 2% | 0.2 | 0.64 | -1 | 4.0
Cc1cc(C(=O)OCC(=O)Nc2ccc(S(=O)(=O)N3CCOCC3)cc2)c(C)o1 | 0.0 | -1.4 | 16% | 0.8 | 0.69 | 4 | 4.7
O=C1C=C(c2ccc3c(c2)oc2ccccc23)C[C@@H](c2ccc(Cl)cc2)C1 | 2.5 | 7.3 | / | 0.2 | / | -1 | 2.0
Cc1ccc(-n2nnnc2SCC(=O)Nc2cccc(NC(=O)c3ccco3)c2)cc1C | 1.2 | 5.7 | -4% | 0.1 | 0.75 | -16 | -3.7

Next part:
SMILES | UCH37 DUB inh | HNF4A DNA FP | Vif A3G | Bfl-1 A1 inh | E coli growth | B2AR ag | LANA-H2B inh
Cc1c(N2C(=O)CSC23C(=O)Nc2ccccc23)c(=O)n(-c2ccccc2)n1C (stereo unspecified) | 3.9 | 3.6 | 6% | 0.0 | 0.69 | 1 | 0.1
Cc1ccccc1N1CCN(C2CCCN(C(=O)c3cc(C(C)C)[nH]n3)C2)CC1 (stereo unspecified) | 4.7 | -2.5 | / | 0.4 | 0.7 | -11 | -3.1
O=C(CCNS(=O)(=O)c1ccc(Br)cc1)NCc1cccs1 | 5.4 | -1.3 | -5% | -1.3 | 0.71 | -4 | 4.5
c1ccc(Sc2ncnc3ccccc23)cc1 | / | 1.6 | 0% | -0.3 | / | 11 | 6.5
COC(=O)C1CCCCN1C(=O)c1ccc2oc(C(C)C)nc2c1 (stereo unspecified) | 2.8 | 1.4 | / | -0.2 | 0.64 | -4 | -0.1
Cc1c(C)c2ccc(OS(C)(=O)=O)cc2oc1=O | -141 | -1.6 | 2% | 0.6 | 0.69 | 0 | -4.5
CC1Cc2ccccc2N1C(=O)c1ccc2c(c1)OCO2 (stereo unspecified) | 3.3 | 1.5 | -6% | -0.5 | 0.69 | -1 | 1.5
CC1(c2ccc(Cl)cc2Cl)NC(=O)N(CC(=O)Nc2ccc3[nH]c(=O)[nH]c3c2)C1=O (stereo unspecified) | 1.9 | -3.1 | 3% | 1.0 | 0.67 | -2 | -1.9
Cc1[nH]c(=O)[nH]c(=O)c1S(=O)(=O)NCCOC12CC3CC(CC(C3)C1)C2 | 4.8 | 4.0 | 2% | 0.4 | 0.71 | -2 | 0.5
CN1CCN(C(=O)c2ccc(N(Cc3ccc(Cl)cc3)S(C)(=O)=O)cc2)CC1 | 6.4 | 2.9 | 4% | -0.5 | 0.67 | 7 | -0.4
NC(=O)CSc1nnc(NC(=O)c2ccc(Br)o2)s1 | 14 | -23 | ? | -1.1 | 0.67 | -6 | 1.2
O=S1(=O)C=CC(Sc2nc3ccccc3[nH]2)C1 (stereo unspecified) | 4.7 | 2.6 | 4% | 0.0 | 0.68 | -4 | -3.2
O=C(Nc1ccc(F)c(F)c1)c1oc2ccccc2c1NC(=O)C1CCCO1 (stereo unspecified) | / | -4.1 | -4% | -0.1 | / | -1 | -0.3
CN(C)CCCNc1oc(-c2ccc(Cl)cc2)nc1C#N | -66 | -0.5 | 14% | 0.0 | 0.76 | 2 | -2.2
Cc1cnn(-c2ccc3nnc(-c4ccc(Br)cc4)n3n2)c1 | -20 | 10 | -16% | 0.8 | 0.73 | -5 | -0.1
CCn1c(/C=C/c2ccccc2F)nc2ccccc2c1=O | 1.3 | -2.0 | / | 0.3 | 0.63 | 0 | 2.5
Cc1ccc(C(=O)Nc2ccncc2)cc1[N+](=O)[O-] | 1.1 | 5.1 | 17% | -0.7 | 0.62 | -3 | 1.5

High-throughput results (PubChem BioAssay)
